LANA-nucl inh: LANA-nucleosome interaction inhibition. FITC-LANA1-23 / chicken nucleosome fluorescence polarization; stronger effect = lower value. z-score (no concentration beside the values). actives 0.3% (n = 51,000);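 active means both repeat wells score below -2 in polarization z-score versus plate sample wells, excluding overly bright wells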;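 further: 100 nL library stock added to about 30 µL; numbers are from one replicate; some results filed as inactive read as strong as hits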
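Test system: purified chicken nucleosomes with FITC-labelled LANA N-terminal peptide (1-23); Input: 240 nM purified chicken nucleosomes (480 nM peptide binding sites), final; Medium: TEN-BT buffer, pH 7.5; Timing: 10–45 min, room temperature; Technique: fluorescence polarization, 480 nm excitation, 535 nm parallel and perpendicular emission; Replication: duplicates.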
BasE inh: BasE siderophore biosynthesis inhibition. purified BasE, fluorescence polarization binding displacement. inhibition, % (test concentration not listed). actives 0.1% (n = 84,000);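 active means both replicates above 25% with normal brightness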;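 further: 0% = negative plate control signal and 100% = positive plate control signal; stock transfer was 100 nL into about 30 µL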
* hit, by the source's call; x = not tested or not shown; & = joins results of further samples. These rows are one share of the data, so the mix of outcomes need not match the whole.

SMILES	LANA-nucl inh	BasE inh
COc1cc2c(cc1OC)C(C(=O)NCc1ccc3c(c1)OCO3)C1c3ccccc3CCN1C2=O (stereo not given)	0.16	0.6
Cc1cc(Cl)ccc1OC(C)C(=O)NCCCn1ccnc1 (stereo not given)	-0.583	2.3
OCCCNC(c1ccccc1)c1ccc(O)cc1 (stereo not given)	0.54	-0.2
COC(=O)c1ccc(CSc2nc3ccccc3c(=O)n2C(C)c2ccccc2)o1 (stereo not given)	x	4.6
O=C(O)c1ccc(-n2nnnc2SCc2ccccc2F)cc1	0.905	2.3
CSc1nc(NS(=O)(=O)c2cc(Cl)sc2Cl)nn1C	0.0715	1.7
CCOC(=O)c1cn(C)c2ccccc2c1=O	-0.639	0.1
CCOc1ccccc1COC(=O)Cc1coc2cc(O)ccc12	x	-0.8
CCCCN1C(=O)CN(CCc2ccccc2)C(=O)C1c1ccc(OC)cc1 (stereo not given)	-0.66	2.8
CN(CC(=O)NC1CCCCCCC1)S(=O)(=O)c1ccc2[nH]c(=O)oc2c1	0.98	0.1
O=C(c1ccc(N2CCOCC2)nc1)N1CCN(C(c2ccccc2)c2ccccc2)CC1	0.755	-3.0
CC(C)c1cc(C(C)C)c(S(=O)(=O)NCCC(=O)O)c(C(C)C)c1	x	0.8
CC(=O)OCC(=O)[C@@]12OC(C)(C)O[C@@H]1C[C@H]1[C@@H]3C[C@H](F)C4=CC(=O)C=C[C@]4(C)[C@@]3(F)[C@@H](O)C[C@@]12C	0.0115	-0.7
COC(=O)c1ccc(NS(=O)(=O)c2ccc3c(c2)CC(C)N3C(=O)C2CCC2)cc1 (stereo not given)	-1.44	-2.0
Cc1ccc(S(=O)(=O)c2c(N)n(NC(=O)C3CC3)c3nc4ccccc4nc23)cc1	0.996	x
Cc1nc2scc(C)n2c(=O)c1S(=O)(=O)NCCN1CCOCC1	1.29	-1.1
CCCCC(=O)Nc1ccc(S(=O)(=O)N2CCCCCC2)cc1	-0.0735	0.2
N#CCOC(=O)c1ccccc1NC(=O)c1ccccc1	x	-0.2
Cc1cc(NC(=O)CCCN2C(=O)/C(=C\c3ccco3)SC2=S)no1	0.021	-0.6
Cc1ccccc1Nc1nc(N)nc(Cn2cc(Br)ccc2=O)n1	x	2.0
Cc1ccc(-n2c(=O)c3c(cnn3C)n(Cc3cccc(C)c3)c2=O)cc1	1.21	0.5
O=C(/C=C/c1ccco1)OCc1nc2sc3c(c2c(=O)[nH]1)CCCC3	x	-1.3
CCOC(=O)N1CCC(NC(=O)CSCc2nc(-c3ccccc3Cl)oc2C)CC1	0.35	1.3
Cc1[nH]nc(-c2ccc(S(=O)(=O)N3CCc4ccccc43)s2)c1C	1.62	-31.0
Cc1ccc(NC(NC(=O)c2cccs2)C(=O)c2ccccc2)cc1 (stereo not given)	x	0.1
Cc1nc2nc(NC(=O)c3ccccc3)[nH]n2c(=O)c1Cc1ccccc1	-0.068	1.5
CC1CCc2c(sc(NC(=O)c3cccs3)c2C(=O)N2CCCCC2)C1 (stereo not given)	-1.42	0.8
CN(C)c1c(F)cc(C(=O)NC(=O)Nc2nnc(C(F)(F)F)s2)cc1F	-0.515	1.4
COc1ccc(C(=O)CSC2=NCCCCCC2)cc1	x	2.2
CNC(=S)NC1CCN(Cc2ccccc2)CC1	x	0.0
CCC(C)C12CN(C(C)=O)CC(C)(CN(C(C)=O)C1)C2=O (stereo not given)	2.2	-2.8
COC(=O)CC1C(=O)NCCN1C(=S)Nc1ccccc1 (stereo not given)	-1.21	-4.2
CC1CN(CC(O)COC(C)c2ccc(Cl)cc2)CC(C)O1 (stereo not given)	x	0.1
OCCNc1nnc2c(n1)[nH]c1ccccc12	-0.1	1.2
C(=Nc1ccc(Cc2ccc(N=Cc3ccccn3)cc2)cc1)c1ccccn1	x	0.4
C=CCN(C(=O)C(C)Sc1nc2ncccc2o1)c1ccccc1 (stereo not given)	0.61	-0.5
O=C(CCC(=O)N1CCCCc2ccccc21)N1CCC2(CC1)OCCO2	-2.09	-0.8
CCN(CC)CCn1c(=O)[nH]c2cc(C(=O)NC3CCCC3)ccc21	-1.06	2.0
CC1=C(CC(=O)O)c2cc(F)ccc2/C1=C/c1ccc(S(C)=O)cc1 (stereo not given)	-0.065&-0.214	0.6
CCN(CC(=O)Nc1ccc(Br)cc1)CC(=O)Nc1ccc(NC(C)=O)cc1	x	0.9
Cn1nnnc1SCC(=O)Nc1ccc(C(=O)N2CCN(Cc3cccs3)CC2)cc1	x	0.4
CCc1ccc(-n2[nH]c(=O)c(/C=c3/c(C)c(C#N)c4nc5ccccc5n4c3=O)c2O)cc1	x	-1.0
CCOC(=O)c1c(C)oc2c1c1c(c3ccccc32)OCN(C(C)C)C1	x	0.2
COc1ccc(Cc2nn3c(C(F)(F)F)nnc3s2)cc1OC	0.191	-1.0
CC(=O)Nc1ccc(/C=C2/C(=O)N(CCC#N)C=C2C)cc1	x	1.6
CC1CC(C)(C)N(C(=O)c2ccccc2F)c2ccccc21 (stereo not given)	x	0.5
O=C(c1ccccc1)c1ccccn1	-0.605	-1.9
Cc1cn2c(=O)c(C(=O)NC3=NCCS3)cnc2s1	0.803	1.4
O=C(O)CSCC(=O)Nc1ccccc1-c1ccccc1	-0.405	0.9
CC1CCCCC1n1c(SCC(=O)c2ccc(Br)s2)nnc1-c1cccnc1 (stereo not given)	x	-5.1
O=C(O)C1CCC(Cn2c(=S)[nH]c3ccccc3c2=O)CC1 (stereo not given)	0.367	1.0
O=C(c1ccc(Cl)cc1)n1c(=O)oc2cc(Cl)ccc21	x	1.9
CCCCNC(=O)C1CCC(=O)N1Cc1ccccc1Cl (stereo not given)	0.869	-0.5
O=C(CCN1C(=O)c2ccccc2C1=O)Nc1ccc(S(=O)(=O)Nc2ncccn2)cc1	0.039	4.0
CN1C(=O)c2ccc(C(=O)O)cc2CC1c1ccccc1 (stereo not given)	x	-1.9
CC(C)NC(=O)COn1nnc2ccc(Cl)cc21	x	3.5
O=C(CNc1nnnn1-c1ccccc1)Nc1ccc(F)c(F)c1F	x	-7.4
NC(=O)c1ccc(-n2nnnc2Oc2ccccc2C(=O)N2CCOCC2)cc1	1.28	-1.8
O=C(NC1=NCCS1)C1COc2ccccc2O1 (stereo not given)	x	0.3
O=C(CCNC(=O)c1ccccc1Cl)Nc1nccs1	x	1.9

Next part
SMILES	LANA-nucl inh	BasE inh
CCC12CCCN3CCc4c(n(c5ccccc45)C(=O)C1)C32 (stereo not given)	-0.381	0.5
FC(F)(F)Oc1ccc(-n2[nH]nnc2=S)cc1	-0.0225	0.2
CCS(=O)(=O)Nc1cc(C(C)(C)C)ccc1OC	-0.0895	0.9
O=c1oc2ccccc2c(O)c1C=NCc1ccccn1	x	2.8
O=C1CCC(=O)N1N1C(=O)C2C3c4ccccc4C(c4ccccc43)C2C1=O (stereo not given)	0.069	-1.0
CCC(=O)/C=C1/Sc2ccc(OC)cc2N1CC	0.373	-1.4
O=C(Nc1ccc(C(F)(F)F)cc1)N1C2CCC1CC(O)(c1cccnc1)C2 (stereo not given)	0.979	2.1
CSc1nn(-c2ccc(C(=O)OCC(=O)N(C)C)cc2)c(=S)s1	x	-2.4
CN(C)CCCNc1oc(-c2ccccc2)nc1C#N	x	3.1
C[C@H]1C[C@@H]2[C@H]([C@@H](O)C[C@@]3(C)[C@H]2CC[C@]3(O)C(=O)CO)[C@@]2(C)C=CC(=O)C=C12	0.455&-1.46	-3.0
C/C=C/C(=O)NCC1OCCc2ccccc21 (stereo not given)	x	2.3
CC1C(c2ccccc2)OCCN1C(=O)CCN1C(=O)c2ccccc2C1=O (stereo not given)	x	0.8
CC(C)N1C(=O)S/C(=C/c2cc3c(cc2Cl)OCO3)C1=O	-0.0005	5.2
O=C(NC1CCS(=O)(=O)C1)/C(=C/c1ccco1)NC(=O)c1ccccc1 (stereo not given)	-0.138	0.9
CS(=O)(=O)c1ccc(C(=O)N2CCN(c3ccccc3)CC2)cc1	-0.509	-0.4
CCN1CCN(C(=O)c2ccc3c(c2)NC(=O)c2ccccc2S3)CC1	0.759	-3.2
CCN(Cc1ccccc1)C(=O)CSc1nc2ncccc2o1	0.557	-0.1
CC(=O)OC1CCN(c2cc(C(F)(F)F)nc3cc(Cl)cc(Cl)c23)CC1	x	2.3
CC1(C)C(c2ccccc2)=[N+]([O-])C(c2ccc(Br)cc2)N1O (stereo not given)	x	1.7
O=C(O)c1cccc(OC(F)F)c1	x	2.0
COC(=O)C(C)Oc1cc2oc(=O)cc(C)c2cc1Cl (stereo not given)	x	2.4
CCC(=O)N=c1sc2c(C)cc(C)cc2n1CC	-0.213	-0.2
Cc1cc(COC(=O)CSc2cc(C)c3ccccc3n2)no1	x	-0.9
CC(C)(C)OC(=O)/C(C#N)=C/c1ccc(C#N)cc1	-0.756	1.1
CC(C)c1ccc(C(=O)Nc2ccccc2N2CCN(C)CC2)c(C(C)C)c1	x	0.4
Cc1ccccc1-c1nnc(SCC(=O)Oc2c(C)cccc2C)o1	-0.727	2.3
O=C(Nc1ccc2c(c1)oc1ccc(S(=O)(=O)N3CCCC3)cc12)C1CC1	-0.0955	-0.1
CC(=O)N1CCC(C(=O)NCc2cc3ccccc3s2)CC1	-1.45	x
CCN1CCCC1CNC(=O)c1nnc(Cc2ccccc2OC)o1 (stereo not given)	0.676	3.4
Cc1ccc(C)n1-c1n[nH]c(=S)s1	-0.791	0.5
C=CCn1c(SCC(=O)c2ccc(NC(=O)CC)cc2)nnc1C1COc2ccccc2O1 (stereo not given)	x	1.3
N#CCSc1nc2ccc(N)cc2s1	-0.139	0.3
CCN(CC)CCCn1c(-c2ccccc2)cn2c3ccccc3nc12	x	-3.1
CC1c2cccn2CCN1S(=O)(=O)/C=C/c1ccc(Cl)cc1 (stereo not given)	x	0.1
CCCCc1nc2c(nnn2Cc2ccccc2)c(=O)[nH]1	-0.323	1.0
O=C(Nc1cccc(Br)c1)C1CC(=O)N(C2CCCC2)C1 (stereo not given)	1.9	-3.1
O=C(CSc1nc2ccccc2s1)c1ccc(O)cc1O	x	1.1
O=C(c1cccc(S(=O)(=O)N2CCOCC2)c1)N1CCCCC1	-0.989	1.5
COc1ccc2nc(C3C(=O)c4cccnc4C3=O)ccc2c1 (stereo not given)	3.09	0.7
COc1ccc(/C=c2\oc3cccc4c(OC)ccc(c2=O)c34)cc1	x	-9.4
COc1cccc(CNC(=O)C(C)n2c3ccccc3c3cnn(C)c(=O)c32)c1 (stereo not given)	-1.62	-0.9
O=C(NCCOc1ccccc1)C1=CC=CN2CCS(=O)(=O)N=C12	x	1.3
CCN(c1ccccc1)c1cc(C)c2ccccc2n1	x	0.5
O=C(NC1CC1)c1ccc(OCC2CCCO2)cc1 (stereo not given)	x	4.3
Fc1ccc(NC2=NCCC2)cc1	x	1.1
NS(=O)(=O)c1ccc(NC(=O)CSc2nc3ccccc3n2C2CCCCC2)cc1	x	-1.7
C=CCNC(=O)CSc1nc2scc(-c3ccco3)c2c(=O)n1CC=C	x	-0.1
CC(C)c1ccc(NS(=O)(=O)c2ccc(N3C(=O)CCC3=O)cc2)cc1	x	-0.2
Cn1c(CO)nc2cc(N)ccc21	0.42	-1.6
N#Cc1c(C(F)(F)F)cc(-c2ccccc2)n(N)c1=O	x	-2.2
COc1ccc(C(=S)N2CCCC2)cc1OC	0.0605	0.2
Cc1cc(C(=O)NN)c(C)n1-c1ccccc1	x	-0.1
Cc1ccc(N(CC(=O)Nc2cc(C)ccc2C)S(=O)(=O)c2c(C)nn(C)c2C)cc1	1.19	-1.5
COc1ccc(NC(=O)CCCn2sc3ccccc3c2=O)cc1	-1.3	-0.8
CCN(CC)CC(=O)Nc1ccc(-c2ccc(NC(=O)CN(CC)CC)cc2)cc1	1.78	-15.4
COc1ccc(S(=O)(=O)/C=C/c2ccccc2)cc1	-0.195	1.4
Cc1ccc2cc(C#N)c(N3CCCN(C(=O)C4CCCCC4)CC3)nc2c1	-0.0545	-0.4

Molecules from the list above that have two or more sulfur atoms (14):
SMILES	LANA-nucl inh	BasE inh
CSc1nc(NS(=O)(=O)c2cc(Cl)sc2Cl)nn1C	0.0715	1.7
Cc1nc2scc(C)n2c(=O)c1S(=O)(=O)NCCN1CCOCC1	1.29	-1.1
Cc1cc(NC(=O)CCCN2C(=O)/C(=C\c3ccco3)SC2=S)no1	0.021	-0.6
Cc1[nH]nc(-c2ccc(S(=O)(=O)N3CCc4ccccc43)s2)c1C	1.62	-31.0
CC1CCc2c(sc(NC(=O)c3cccs3)c2C(=O)N2CCCCC2)C1 (stereo not given)	-1.42	0.8
Cn1nnnc1SCC(=O)Nc1ccc(C(=O)N2CCN(Cc3cccs3)CC2)cc1	x	0.4
Cc1cn2c(=O)c(C(=O)NC3=NCCS3)cnc2s1	0.803	1.4
CC1CCCCC1n1c(SCC(=O)c2ccc(Br)s2)nnc1-c1cccnc1 (stereo not given)	x	-5.1
CSc1nn(-c2ccc(C(=O)OCC(=O)N(C)C)cc2)c(=S)s1	x	-2.4
Cc1ccc(C)n1-c1n[nH]c(=S)s1	-0.791	0.5
N#CCSc1nc2ccc(N)cc2s1	-0.139	0.3
O=C(CSc1nc2ccccc2s1)c1ccc(O)cc1O	x	1.1
NS(=O)(=O)c1ccc(NC(=O)CSc2nc3ccccc3n2C2CCCCC2)cc1	x	-1.7
C=CCNC(=O)CSc1nc2scc(-c3ccco3)c2c(=O)n1CC=C	x	-0.1

Compound activity as filed in PubChem BioAssay.
